PrP 5UTR inh = suppresses PrP 5' UTR mRNA reporter expression; cell-based PrP 5' UTR mRNA reporter, plate reader; inhibition, % (concentration not given with the values); 0.35% of 340,000 active; AID 488862;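 active = every replicate at 50% or more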;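 also: 0 = median of the neutral control wells; tested in H4 reporter cells; numbers are from one replicate; inactives centre near -14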
Mtb hypoxia inh = reduces hypoxia-regulated biosensor signal in M. tuberculosis; M. tuberculosis hypoxia-regulated fluorescent reporter, fluorescence; fluorescence inhibition, % (no concentration beside the values); 0.1% of 300,000 active; AID 1159583;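 active = 35 to 45% if threefold the growth effect, above 45% if 1.5-fold the growth effect; inactive = the rest, general growth blockers included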;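 also: wells of about 50 µL received 100 nL stock; 0% = vehicle wells and 100% = reference inhibitor wells; whole bacteria with a GFP reporter of the hypoxia response; strong numbers were not always called active; many hits fall short of the cut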
Autofluor counter = flagged as autofluorescent in microsphere protease counterscreen; compound autofluorescence counterscreen, microsphere flow cytometry; hits give high values; fluorescence intensity (test concentration not listed); 3.1% of 360,000 active;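 active = at least 3 SD above the mean of all compounds, about 16000 in these data; inconclusive = too few beads counted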;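 also: 100 nL of 1 mM stock went into each well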
Sa ugtP lethal = compounds lethal to S. aureus RN4220 ugtP deletion mutant; OD600 growth, 16 h; some inactives read as strong as hits; growth inhibition, % (no concentration beside the values); 0.54% of 330,000 active;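 active = z-score under -3 and OD600 up to 0.15 on both plates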;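 also: plate controls were untreated wells for no effect and antibiotic for full effect; wells of about 80 µL received 100 nL stock; the first replicate is given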
Sa RN4220 lethal = S. aureus RN4220 growth inhibition; OD600, 16 h; inhibition, % (concentration not given with the values); 0.33% of 330,000 active;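 active = z-score of -3 or lower and OD600 up to 0.18 on both plates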;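 also: plate controls were untreated cells for no effect and reference antibiotic for full effect; stock transfer was 100 nL into about 80 µL; one replicate is shown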
BJeLR lethal = kills HRASV12-expressing BJeLR cells; BJeLR (HRASV12) viability, CellTiter-Glo ATP luminescence, 48 h; reference of the scale not given here; inhibition, % (concentration not given with the values); 0.17% of 300,000 active;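 active = replicate mean above 50%; inconclusive = above 50% but judged a plate artefact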;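 also: 50 nL library stock added to about 25 µL; numbers are from one replicate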
Mtb hypoxia inh growth = further read-out of Mtb hypoxia inh, marked with its call; growth inhibition, %; measured here: M. tuberculosis growth (absorbance);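 0% = vehicle and 100% = reference antibiotic; read after six days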
Starred values were filed as active, the others as inactive; ? = inconclusive; · = no result given; & = joins results of further samples.

The opening two records, ahead of the listing:
#	canonical_smiles	Sa ugtP lethal	Sa RN4220 lethal	Mtb hypoxia inh	BJeLR lethal	Autofluor counter	PrP 5UTR inh	Mtb hypoxia inh growth
1	COc1ccc(NC(=O)Cc2ccc(Cl)cc2)cc1NC(=O)c1ccco1	5	4.0	4	-15	21196*	-31	-3
2	COc1ccc(OCC(=O)O/N=C(\N)Cc2cccs2)cc1	14	6.6	2	-1	2552	-29	6

Main list (from the top)
#	canonical_smiles	Sa ugtP lethal	Sa RN4220 lethal	Mtb hypoxia inh	BJeLR lethal	Autofluor counter	PrP 5UTR inh	Mtb hypoxia inh growth
1	COc1ccc(NC(=O)Cc2ccc(Cl)cc2)cc1NC(=O)c1ccco1	5	4.0	4	-15	21196*	-31	-3
2	COc1ccc(OCC(=O)O/N=C(\N)Cc2cccs2)cc1	14	6.6	2	-1	2552	-29	6
3	O=C(CSc1nnc2c(n1)[nH]c1ccccc12)OCc1ccccc1	7	0.7	·	4	2828	-17	·
4	CC(C)CC(=O)Nc1ccnc(-c2ccncc2)n1	10	-1.2	15	-10	2137	-22	10
5	CC(C)CCN(C(=O)CCCSc1nc2ccccc2[nH]1)c1c(N)n(Cc2ccccc2)c(=O)[nH]c1=O	·	·	·	-5	?	-17	·
6	CCOC(=O)c1ccccc1NC(=O)C1COc2ccccc2O1 (stereo unspecified)	19	15	·	6	3749	-11	·
7	CCOC(=O)C(=CNc1ccccc1C)C(=O)OCC	1	0.6	1	6	5509	-2	12
8	CCCCNC(=S)NNC(=O)c1ccc(Br)o1	5	6.6	12	-9	2397	-11	8
9	O=C(NCc1ccccc1)NC1(C(=O)N2CCN(c3ccccc3)CC2)CCCCC1	9	3.2	·	4	5504	-10	·
10	COc1ccc(CCNC(=O)CN2C(=O)COc3ccc(S(=O)(=O)N4CCCC4)cc32)cc1OC	10	3.8	8	-3	5970	-19	2
11	COc1ccc(Nc2nnc(Cc3ccc(Cl)cc3)c(=O)[nH]2)c(OC)c1	5	-5.8	8	-5	4196	-19	3
12	COc1ccc(CC(=O)NC(=S)Nc2cccc(C)c2)cc1	20	-5.6	3	-3	4836	-6	20
13	O=C(Nc1ccc(F)cc1)C(c1ccccc1)N1CCN(S(=O)(=O)c2c(F)cccc2F)CC1 (stereo unspecified)	23	-4.0	1	-19	3280	-5	-1
14	CC(C)(C)NC(=O)CN1CCCN(C(=O)COc2ccc(Cl)c3ccccc23)CC1	-5	6.0	10	·	·	-15	3
15	COc1ccc(-c2ccccc2[C@H]2[C@@H]3C=CC[C@@H](C)[C@@H]3C(=O)N2Cc2ccccc2)cc1	7	-9.8	-4	·	3961	-19	-1
16	COc1ccc(C(N)=NOC(=O)C=Cc2ccccc2)cc1	-1	5.3	-1	·	·	·	0
17	CCCNC(=O)NS(=O)(=O)c1cnccc1Sc1ccc(Cl)cc1	-5	-5.0	·	12	2761	-3	·
18	Cc1ccc(-n2c(SCC(N)=O)nc3c(c2=O)C2(CCCC2)Cc2ccccc2-3)cc1	74	-15	-1	-6	2549	-2	2
19	Cc1cc(C(=O)COC(=O)CCCN2C(=O)c3ccccc3C2=O)c(C)n1C	-3	-3.5	-9	-6	7106	-29	-5
20	O=C(COc1ccccc1F)NN=C1CCCc2ccccc21	5	-2.7	4	·	·	·	-3
21	Cc1c(-n2cc(C(=O)O)c(=O)c3cc(F)c(N4CCCC4)c(F)c32)c(=O)n(-c2ccccc2)n1C	-2	-1.8	2	-2	4209	-10	3
22	CC(Oc1ccccc1)c1nnc(N)s1 (stereo unspecified)	5	5.7	9	9	3239	-38	8
23	Cc1nc(-c2ccccc2)sc1C(=O)CSc1ccc(F)cc1	-2	0.3	·	6	5052	-19	·
24	COCCNc1c2c(nc3ccccc13)CCC2	2	0.8	6	-3	3453	-6	10
25	CSCC[C@@H](CO)NC(=O)c1ccc2nc(C3CCCCC3)oc2c1	7	1.0	-1	7	3753	4	12
26	O=C1NC(=O)/C(=C\c2ccccc2OCc2ccccc2)S1	58	51	-5	-3	4350	-25	14
27	CCn1c(=O)c2sccc2n2c(CCCC(=O)NCc3cccnc3)nnc12	2	2.8	1	12	5745	-8	9
28	O=C(CN1CCN(C(=O)N2CCOCC2)CC1)Nc1cc(Cl)ccc1Cl	9	4.9	8	-10	2931	-9	-1
29	Fc1ccc(-c2cnc(-c3cccs3)o2)cc1	6	15	7	-4	4324	-80	7
30	Cc1cccc(N=C/C(C(=O)C(F)(F)F)=C(\O)c2ccco2)c1	2	4.4	11	-5	2117	-38	2
31	O=C(Cn1c2ccc(F)cc2c2nc3n(c(=O)c21)CCS3)NCC1CCCO1 (stereo unspecified)	4	-1.5	-1	3	4185	-15	14
32	CCOc1ccc(C(C(=O)NC2CCCCC2)N(C(=O)c2ccccn2)c2cccnc2)cc1 (stereo unspecified)	2	4.9	1	3	4359	-25	2
33	CS(=O)(=O)Nc1ccc(C(=O)Nc2ccc3ccccc3c2)cc1	3	2.4	6	0	·	-108	6
34	O=C(/C=C/c1c[nH]c2ccccc12)c1ccccc1	2	2.1	3	-2	9762	-82	-4
35	CCCC1=C(C(=O)OCC)C(c2ccc(OC)c(C)c2OC)C(C#N)=C(N)O1 (stereo unspecified)	14	-1.4	-9	4	2505	1	-4
36	ClCC1CSC(=NC23CC4CC(CC(C4)C2)C3)O1 (stereo unspecified)	13	11	-2	-5	3238	-4	-1
37	CCCC1(c2ccccc2)NC(=O)N(CC(=O)c2[nH]c(C)c(C(=O)OCC)c2C)C1=O (stereo unspecified)	-4	1.4	·	1	2244	-35	·
38	Cc1c(NC(C)C)c(=O)n(-c2ccccc2)n1C	6	2.5	-3	·	6285	-6	-5
39	CC(C)C(=O)Nc1nnc(CCN2CCCCC2)s1	3	4.7	-5	-3	·	-9	1
40	Cc1ccc(OCCCNC2CCCC2)cc1	16	1.7	2	2	2246	-15	8
41	CC1CCN(CCNC(=O)c2ccc3c(=O)n(Cc4ccc(Cl)cc4)c(=S)[nH]c3c2)CC1	-3	-12	17	6	6825	7	11
42	c1cncc(-c2nnc(SCc3nc4ccccc4[nH]3)o2)c1	0	2.9	-8	-4	3930	-2	11
43	CC(C)(C)c1ccc(S(=O)(=O)NCC2CCCO2)cc1 (stereo unspecified)	1	-0.2	-9	2	3804	-11	-5
44	O=c1[nH]c2ccc(Br)cc2c(-c2ccccc2)c1N1CCOCC1	-15	-2.0	-5	3	4276	-8	1
45	O=C(O)c1c[nH]c2ccc(S(=O)(=O)N3CCN(c4ccc(F)cc4)CC3)cc2c1=O	8	5.4	2	7	9876	-6	1
46	Cc1ccc(N2C(=O)c3oc4ccccc4c(=O)c3C2c2cccc(O)c2)nc1 (stereo unspecified)	4	6.1	·	-14	5981	-10	·
47	N#CCc1nc(-c2cc3ccccc3oc2=O)cs1	2	3.0	-7	-2	3515	-13	0
48	C/C(CC(=O)Nc1cccnc1)=N\NC(=O)C(=O)NC(C)C	·	·	·	-6	3764	-21	·
49	Cc1ccc(CNC(=O)CCNC(=O)Cn2ccc3ccccc3c2=O)cc1	-5	-3.9	-1	-9	3974	-11	-12
50	COCC(=O)N1CCC(Oc2ccc(C(=O)N3CCSCC3)cc2)CC1	0	-1.1	6	5	4414	-6	6

Additional records follow:
#	canonical_smiles	Sa ugtP lethal	Sa RN4220 lethal	Mtb hypoxia inh	BJeLR lethal	Autofluor counter	PrP 5UTR inh	Mtb hypoxia inh growth
51	COc1ccc(OC)c(NC(=O)C2CC(=O)N(Cc3ccco3)C2)c1 (stereo unspecified)	5	4.5	-3	·	6517	-16	-3
52	COc1ccc(C(=O)NCc2cccnc2)cc1S(=O)(=O)N1CCOCC1	9	4.2	3	-8	21445*	-16	6
53	O=C(Cn1c(=S)[nH]c2ccccc21)c1ccccc1	1	1.0	9	11	2013	-50	2
54	O=C(NCCNCCO)C1(C(F)(F)F)C/C(=C\CCO)CCCO1 (stereo unspecified)	·	·	·	1	3418	-4	·
55	CCOc1ccc(C(=O)NCCN2CCOCC2)cc1	4	9.5	14	0	4403	-33	11
56	O=C(C1CCOCC1)N1CCCC(N2CCN(c3ccc(F)cc3)CC2)C1 (stereo unspecified)	2	1.0	-1	10	4246	-17	-4
57	O=S(=O)(Cc1nnnn1-c1ccccc1)c1ccc(Cl)cc1	2	4.1	8	0	5558	1	16
58	COC(=O)C1=C(C(=O)OC)[C@]2(C3CCCCNC(Cc4ccccc4)C(=O)N3Cc3ccccc3)C=CC1O2 (stereo partly specified)	16&14	-2.7&0.8	15&10	·	·	·	6&15
59	CSc1nc(C=Nc2ccccc2Cl)c(O)n1Cc1cccc(Cl)c1	-3	4.0	-9	1	4721	-24	0
60	CCCCOc1ccc(-c2nc(-c3cccnc3)no2)cc1	13	-2.8	·	-1	2783	-66	·
61	CCN(C(=O)COC(=O)c1cc2ccccc2cc1O)C1CCS(=O)(=O)C1 (stereo unspecified)	5	4.8	7	-5	3862	-12	0
62	Cn1c(N)c(C(=O)COC(=O)COc2cccc(Br)c2)c(=O)n(C)c1=O	2	4.7	2	·	5574	-10	5
63	Cc1ccc(Cn2c(O)c(N=NC(=S)Nc3ccccc3F)c3cc(S(=O)(=O)N4CCOCC4)ccc32)cc1	-2	1.0	-6	2	4195	29	-12
64	CN1CCN(C(=O)C2=C[C@@H](c3ccc(Br)cc3)C[C@@H](OCc3ccc(CO)cc3)O2)CC1	·	·	·	-13	3776	-26	·
65	O=S(=O)(NCC1COc2ccccc2O1)c1ccccc1F (stereo unspecified)	6	3.3	10	·	5612	-10	5
66	CCOC1=C(C#N)CC2(CC1)c1ccccc1-c1ccccc12	-5	-9.8	26	·	3395	-17	3
67	Cc1cc(C)n(Cc2ccc(C(=O)N/N=C/c3ccc(-c4ccc([N+](=O)[O-])cc4)o3)o2)n1	·	·	·	9	4427	-8	·
68	O=C(Cn1c(NCCO)nc2ccccc21)NCCc1ccc(F)cc1	10	3.5	·	6	3603	2	·
69	Cc1ccc(S(=O)(=O)NC(=O)NCc2ccccn2)cc1	1	-0.7	0	0	7108	-44	-7
70	C=C1CCC[C@]2(C)C[C@H]3OC(=O)C(CNCC(C)C)[C@H]3CC12 (stereo partly specified)	0	1.3	2	0	3483	-6	3
71	Cc1cc(C)nc(/N=C(\N)Nc2cccc(OCc3ccccc3)c2)n1	·	·	·	14	3976	-55	·
72	Cc1ccc(C(=O)NCC(c2ccco2)N2CCc3ccccc3C2)cc1 (stereo unspecified)	10	0.8	5	5	5480	-13	-3
73	Cc1nn(-c2ccccc2)c2nc3c(cc12)C(=O)CCC3	2	-0.1	-5	-3	1956	12	7
74	CC(C)(C)OC(=O)C(Cc1ccccc1)NC(=O)c1nc[nH]c1C(=O)NC(Cc1ccccc1)C(=O)OC(C)(C)C (stereo unspecified)	10	10	2	·	·	·	5
75	CC(C)N(C(=S)Nc1cccc(S(=O)(=O)N(C)C)c1)c1ccccc1	-3	0.8	-10	0	3443	-5	-10
76	Cc1ccccc1NC(=O)COC(=O)c1ccc(S(=O)(=O)N2CCCC2)cc1	2	2.7	4	·	3819	-18	5
77	O=C(N/N=C/c1cn[nH]c1-c1ccc(Cl)cc1)c1ccc([N+](=O)[O-])cc1	·	·	·	4	2401	-6	·
78	O=C(CSc1nnc(CNC(=O)c2cccc(C(F)(F)F)c2)o1)NCC1CCCO1 (stereo unspecified)	4	2.8	8	-2	5609	-4	8
79	FC(F)(F)c1cccnc1Oc1ccc(C2=NCCS2)cc1	5	-5.2	-5	-8	3851	-22	7
80	COc1ccccc1NC(=O)c1ccc(C)c(S(=O)(=O)N2CCCCC2)c1	1	-0.4	2	3	5712	2	15
81	CCN(CC)CCn1c2ccccc2c2nc(C)sc21	7	-1.3	·	-8	4945	-13	·
82	Cc1cc(=O)[nH]c(SCC(=O)Nc2cccc(C(F)(F)F)c2)n1	-5	-3.5	13	6	3367	-7	2
83	COc1ccc(C2C(C#N)=C(N)N(c3ncn[nH]3)C3=C2C(=O)CCC3)cc1 (stereo unspecified)	12	6.9	-6	-5	3471	-16	-5
84	C=CCOc1ccc(/C=N/NC(=O)CN2CCOCC2)cc1OCC	·	·	·	1	4104	-19	·
85	Cc1cccnc1N(C(=O)Nc1cccc(Cl)c1)C1=NCC(C)(C)S1	3	-3.9	-4	0	2307	-8	-4
86	CCC12CC3CC(C1)CC(C(=O)NNC(N)=O)(C3)C2	0	2.7	10	11	5799	-17	16
87	CN(/N=C/c1ccccc1O)C(=S)c1ccccc1	·	·	·	-3	3678	-8	·

Screening results: PubChem BioAssay, several laboratories
